Bioassay records as filed in PubChem.
HPGD inh – inhibitors of human 15-hydroxyprostaglandin dehydrogenase (HPGD) | purified HPGD, NADH fluorescence kinetic, PGE2 substrate | AID 894 | Potency, µM, without a hit: at the highest dose activity change, negative = inhibition, actives largely listed as inhibitors | actives 4.3% (n = 150,000) | P15428; active = well fitted inhibition curve with a large enough effect (not every such curve was filed as active); inconclusive = small, poorly fitted or top-dose-only effect, or another doubt; inactive = no such curve, though single readings can be large or run the other way;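 further: top concentration of the series not given in the record; plate controls included wells without enzyme; inactives centre near -10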
Target sequence (P15428 whole entry, looked up): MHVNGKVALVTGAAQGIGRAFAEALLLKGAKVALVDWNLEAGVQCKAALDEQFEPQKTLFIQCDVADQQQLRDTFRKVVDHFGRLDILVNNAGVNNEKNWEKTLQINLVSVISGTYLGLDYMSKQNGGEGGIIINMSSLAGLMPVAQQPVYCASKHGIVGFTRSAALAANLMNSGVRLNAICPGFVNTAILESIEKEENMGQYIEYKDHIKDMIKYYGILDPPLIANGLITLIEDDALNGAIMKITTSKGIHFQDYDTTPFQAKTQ
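NADH formation kinetics: reaction with 30 uM PGE2 and 1 mM NAD+ (final), 20 nM enzyme, Tris-HCl pH 8 with Tween 20, after 15 min compound preincubation at room temperature. Fluorescence change, last versus first of five reads.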
* = called active by the depositor; ? = inconclusive. On the % scale 0 is the no-effect control and ±100 the full control effect; potency means the concentration at half of the fitted maximal effect. An excerpt (hit frequency here may not be typical).

HPGD inh | molecule
-18% | O=C(c1cc2ccccc2oc1=O)N(c1ccc(Cl)cc1)C1C=CS(=O)(=O)C1 (centres undefined)
6% | Cc1n[nH]c(C)c1S(=O)(=O)NCCc1ccc(Cl)cc1
-2% | CCOC(=O)CSc1nc(N)c(C(=O)Nc2ccc(N(C)C)cc2)s1
-5% | N/C(=N\OC(=O)CCC1CCCC1)c1ccccn1
? | Cc1ccc(C(=O)n2nc(-c3ccco3)nc2N)cc1
-5% | Cc1oc(-c2ccccc2)cc1C(N)=O
-3% | O=S(=O)(c1ccc(Cl)cc1)n1ccc(-c2cccc(OCc3c(F)cccc3Cl)c2)n1
-3% | CC(C)CC(NC(=O)c1ccccc1)C(=O)OCC(=O)Nc1ccc(Br)cn1 (centres undefined)
-6% | Cc1cc(C)c(NC(=O)c2ccccc2CCc2ccccc2)c(C)c1
-1% | Cc1cc(CSc2ccccc2)ccc1NC(=O)c1ccc(C)c([N+](=O)[O-])c1
-6% | CCc1ccc(NC(=O)Cc2ccc(-n3cccc3)cc2)cc1
-11% | Cc1ccc(S(=O)(=O)N(C)c2c(C)ccc(S(=O)(=O)N3CCN(C=O)CC3)c2C)cc1
14µM* | O=C(Nc1nccs1)c1ccc(COc2ccc(F)cc2)o1
-12% | CCOC(=O)c1c(C)[nH]c(C)c1C(=O)COC(=O)c1cccc(S(=O)(=O)N(CC)CC)c1
-6% | CCCCNC(=O)c1ccc2c(=O)n(CCCOCC)c(=S)[nH]c2c1
-8% | N#CCc1nc2n(n1)Cc1ccccc1-2
-2% | O=C(COc1nsnc1N1CCOCC1)N1CCOCC1
-5% | CCC(=O)Nc1nnc(SCC(=O)Nc2ccc(F)cc2)s1
-5% | CCCc1nc2ccccc2c(C(=O)OCC(=O)c2ccc3c(c2)NC(=O)CO3)c1CC
? | COc1ccc(OC)c2c1CC(C)(C)NC2=O
-11% | O=C(COC(=O)c1cc(S(=O)(=O)N2CCOCC2)ccc1Cl)Nc1ccc2c(c1)OCO2
-8% | CC(NS(=O)(=O)c1ccc(CCC(=O)NCc2ccco2)cc1)c1ccccc1 (centres undefined)
-8% | CC(c1ccccc1)N(CC(=O)NC1CCCCC1)S(=O)(=O)c1cccc(C(F)(F)F)c1 (centres undefined)
-11% | CCn1cc(C2=NOC(C(=O)Nc3ccccc3C(=O)OC)C2)c(C)n1 (centres undefined)
-11% | O=C(Nc1ccc(F)cc1F)c1cc2nc3c(c(C(F)(F)F)n2n1)CCCC3
-29% | COc1cc2c(cc1OC)C(C(C(=O)N(CCc1ccc(OC)c(OC)c1OC)CCc1ccc(OC)c(OC)c1OC)c1ccccc1)=NCC2 (centres undefined)
-8% | CCN1CCN(c2ncnc3c2cnn3-c2ccccc2)CC1
35µM* | CN(C)c1ccc(N/C=C/C(=O)c2ccco2)cc1
? | O=C(NNC(=S)Nc1ccc(Cl)cc1Cl)c1ccncc1
-23% | O=C(CN1CCSCC1)N/N=C/c1ccccc1F
-8% | COCC(C)NCc1cccc(C)c1 (centres undefined)
-16% | CN(c1ccc(OCC(=O)NC2CCCC2)cc1)S(=O)(=O)c1cccs1
-8% | O=C(CSc1nnc(-c2ccccc2F)o1)OCc1ccccc1
-7% | O=C(Nc1cccc2cccc(NC(=O)c3ccco3)c12)c1ccco1
-23% | COc1ccc(/C=N\NC(=O)c2cc(O)c(O)c(O)c2)cc1CN1CCN(c2ccc(F)cc2)CC1
-17% | O=C(Nc1ccccc1-c1nnn(CC(=O)N2CCN(c3ccccc3)CC2)n1)c1cccs1
-5% | O=C(CNCC1CCCO1)N1CCCc2ccccc21 (centres undefined)
-1% | CCCN1C(=O)C(O)(C2CC(=O)CC(C)(C)O2)c2ccccc21 (centres undefined)
13µM* | O=C(CSc1n[nH]c(-c2cccs2)n1)NCc1ccc2c(c1)OCO2
-9% | O=C(O)CN1C(=O)C2C3C=CC(C3)C2C1=O (centres undefined)
-23% | COC(=O)c1ccc(NC(=O)CSc2nc(C)cc(=O)[nH]2)cc1
-13% | C=C1CCC(C2CC(=O)OC2=O)C(=O)CCC2C1CC2(C)C (centres undefined)
-15% | CCOC(=O)c1cccc(NC(=O)CSc2nc3cccnc3n2C)c1
-19% | COC(=O)C(=O)Nc1nnc(COc2ccccc2)s1
-25% | COc1ccc(CNC(=O)C2CC(c3cccc(OC)c3)=NO2)cc1 (centres undefined)
-8% | CCOC(=O)CC1=Nc2ccccc2NC(=O)C1
-11% | COc1cccc(C(=O)NCc2ccc(-c3nc4ccccc4s3)cc2)c1
? | CC(=O)Oc1ccc2cc(-c3nc4ccccc4n3C)c(=O)oc2c1
? | CC(C)Cc1nc(N2CCOCC2)c(C#N)c2c1COC(C)(C)C2
8.9µM* | Oc1ccccc1C(=S)N1CCCCCC1
-11% | CCOC(=O)C(NC(=O)c1ccccc1)(Nc1nnc(C)s1)C(F)(F)F (centres undefined)
-3% | Cc1nc2ccccc2n1CC(=O)N/N=C\c1ccccn1
3% | Cc1ccc(CNc2nc(C)nc3sc4c(c23)CCC4)cc1
-7% | CCCCN(C)CCC(=O)Nc1ccc(OC)cc1OC
3% | O=C(CN1CCN(c2ccccc2F)CC1)Nc1ccccc1F
-29% | Cc1[nH]c2ccc3ncccc3c2c1C
-6% | Cc1ccccc1NS(=O)(=O)c1ccc(OCC(=O)N2CCCCC2)cc1
-12% | CCCCNC(=O)CCn1c(=O)c2ccccc2n(Cc2ccc(Cl)cc2)c1=O
-10% | [N-]=[N+]=CC(=O)CCCN1C(=O)c2ccccc2C1=O
-6% | COc1ccc(NC(=O)CSc2nnc(Cc3cccs3)n2-c2ccc(C)cc2)cc1

The results go on:
HPGD inh | molecule
2% | O=C(c1ccccc1)c1nc[nH]c1C(=O)Nc1ccccn1
-13% | N/C(Cc1ccc(Cl)cc1)=N\OC(=O)c1ccccc1
? | CCCN(Cc1cc2ccc(C)cc2[nH]c1=O)C(=O)c1ccccn1
-20% | Cc1cccc2sc(NC(=O)C3CCN(S(=O)(=O)c4cc([N+](=O)[O-])ccc4Cl)CC3)nc12
-5% | CC(=O)Oc1ccc2oc(C)c(C(=O)N3CCOCC3)c2c1
-24% | Nc1nonc1-c1noc(-c2ccccc2Br)n1
-15% | COc1cccc(OC)c1C(=O)Nn1c(-c2cccs2)nc2ccccc2c1=O
? | CCn1c2ccccc2c2cc(NC(=O)C(C)Oc3ccc(OC)cc3)ccc21 (centres undefined)
? | COc1ncc2nc(-c3cccc(C#N)c3)c(=O)n(CCC#N)c2n1
-8% | COc1ccc(C(c2nnnn2C2CCCC2)N2CCN(C3CCCC3)CC2)cc1OC (centres undefined)
-3% | CCCn1c(SCC(=O)Nc2cccc(C)n2)nnc1-c1ccco1
? | Cc1ccc(NC(=O)CSc2nc3c(c(=O)[nH]2)CCC3)cc1C
-8% | COc1ccc2nc(NC3=NCCC3)sc2c1
-19% | Cc1ccc(CN2CC(C(=O)Nc3cccc(S(=O)(=O)N4CCCCC4)c3)CC2=O)cc1 (centres undefined)
-5% | COc1ccccc1OCCNC(=O)/C=C/c1ccc([N+](=O)[O-])cc1
-20% | CCN(CC(O)Cn1c2ccccc2c2ccccc21)S(=O)(=O)c1ccc(C)cc1 (centres undefined)
-3% | O=C(COC(=O)COc1ccccc1[N+](=O)[O-])Nc1cccc(Br)c1
-9% | Cc1nc(C)c(C(=O)C2=C(O)C(=O)N(CCCn3ccnc3)C2c2ccccc2)s1 (centres undefined)
-8% | COc1nc(NCCN2CCOCC2)nc(Nc2ccccc2)n1
-17% | CC(C)C(c1nnnn1C(C)(C)C)N1CCC(Cc2ccccc2)CC1 (centres undefined)

Fetched by compound from the entries so far:
HPGD inh | molecule
? | Cc1ccc(NC(=O)CSc2nc3c(c(=O)[nH]2)CCC3)cc1C
-20% | CCN(CC(O)Cn1c2ccccc2c2ccccc21)S(=O)(=O)c1ccc(C)cc1 (centres undefined)
-9% | Cc1nc(C)c(C(=O)C2=C(O)C(=O)N(CCCn3ccnc3)C2c2ccccc2)s1 (centres undefined)

Arranged by SMILES length (descending): some entries from above.
HPGD inh | molecule
-20% | CCN(CC(O)Cn1c2ccccc2c2ccccc21)S(=O)(=O)c1ccc(C)cc1 (centres undefined)
-3% | O=C(COC(=O)COc1ccccc1[N+](=O)[O-])Nc1cccc(Br)c1
-5% | COc1ccccc1OCCNC(=O)/C=C/c1ccc([N+](=O)[O-])cc1
? | Cc1ccc(NC(=O)CSc2nc3c(c(=O)[nH]2)CCC3)cc1C

Following part
HPGD inh | molecule
-6% | Cc1cc(=O)n2[nH]c(N)c(N=Nc3ccccc3)c2n1
? | CCCNc1ncccc1C(N)=O
-19% | CC(=O)/C(=C/c1ccc(N(C)C)cc1)C(=O)c1ccccc1
-16% | O=C(COc1ccccc1Br)c1ccc(O)cc1O
-7% | CC1(C)CC(=O)C(C=NCC2CCCO2)=C(O)C1 (centres undefined)
-19% | Cc1ccc([N+](=O)[O-])cc1NC(=O)c1ccoc1C
-16% | O=C(Nc1ccccc1)Nc1cc(Cl)cc(Cl)c1
-14% | O=C(Cn1c(=O)n(CCc2c[nH]c3ccccc23)c(=O)c2cccnc21)Nc1ccccc1F
-10% | COC(=O)C1C(=O)C(C(=O)/C=C/c2ccco2)C(=O)CC1(C)C (centres undefined)
3% | COc1ccccc1C(=O)NC(C)C(c1cccs1)N1CCOCC1 (centres undefined)
-15% | COCc1cc(C)nc(SCC(=O)NCc2ccco2)c1C#N
-13% | Cc1nnc(SCc2ccccc2)n(N)c1=O
0% | COc1cc(NC(=O)CSc2nc3ccccc3cc2C)c(C(=O)O)cc1OC
-6% | C=C1CC2C=C(NC(C)=O)CC(C1)C2 (centres undefined)
-8% | O=C(O)c1ccccc1C(=O)NCc1ccc(F)cc1
-8% | CC12CCC(C(=O)N(Cc3ccccc3)Cc3ccccc3)(OC1=O)C2(C)C (centres undefined)
-5% | CCC1C=C(c2ccccc2)C=CN=C1N(CC)CC (centres undefined)
-17% | CN(C(=S)Nc1ccccc1)c1ccccc1
? | N#Cc1c(-c2cccs2)cc(-c2cccnc2)nc1N
? | Cn1c(=O)c2c(nc(N/N=C3\CCCc4ccccc43)n2Cc2ccc(F)cc2)n(C)c1=O
-6% | O=C(OCC#CCSc1nc2ccccc2o1)c1ccco1
-16% | NC(=O)CC(NC(=O)OCc1ccccc1)C(=O)O (centres undefined)
-5% | Cc1cc(C)cc(-n2nnnc2SCC(=O)Nc2cccc(NC(=O)c3ccco3)c2)c1
? | COc1cc(/C=N/NC(=S)Nc2cccc(C(=O)O)c2)ccc1O
-9% | CSC1=N/C(=C\C=C\c2cccs2)C(=O)S1
-10% | O=C(c1cnccn1)N1CCC[C@@]2(CCN(Cc3nccs3)C2)C1
-7% | COc1cccc(NC(=O)COC(=O)c2c(-c3ccccc3)noc2C)c1
-18% | O=C(CSc1nc(Nc2ccccc2)nc(N2CCOCC2)n1)Nc1ccc([N+](=O)[O-])cc1
-4% | O=C(O)CN1C(=O)Nc2ccc(Br)cc2C1c1ccccc1 (centres undefined)
-28% | CC(/C=N/NC(=O)CSc1ccccn1)=C\c1ccc(C(C)C)cc1
16µM* | CN(C)/C=C1\C(=O)N(c2ccc(Cl)cc2)CS1(=O)=O
28µM* | Cc1cc(C)c(S(C)(=O)=O)c(Oc2ccccc2C)n1
1% | Cc1ccc(-n2ncc(C#N)c2/N=C/N2CCOCC2)cc1
-6% | O=C(NCCOC(=O)C1COc2ccccc2O1)C1COc2ccccc2O1 (centres undefined)
-9% | CCOC(=O)c1[nH]c(C)c(/C(O)=C2\C(=O)C(=O)N(CCN(C)C)C2c2ccco2)c1C (centres undefined)
? | CCOC(=O)N1CCC(NC(=O)CSCc2nc(-c3sccc3C)oc2C)CC1
28µM* | O=C1c2ccccc2CN1CCSC(=S)N1CCOCC1
-9% | COCCNC(=O)C(c1ccc(F)cc1)N(Cc1ccco1)C(=O)CCC(=O)Nc1nccs1 (centres undefined)
-15% | COC(=O)CC1COc2ccccc2N1C(=O)c1cccc(Cl)c1 (centres undefined)
-20% | Cc1nn(-c2nc3ccccc3s2)c(N)c1-c1ccccc1

Gathered by group, the compounds so far with a nitro group on carbon.
HPGD inh | molecule
-1% | Cc1cc(CSc2ccccc2)ccc1NC(=O)c1ccc(C)c([N+](=O)[O-])c1
-20% | Cc1cccc2sc(NC(=O)C3CCN(S(=O)(=O)c4cc([N+](=O)[O-])ccc4Cl)CC3)nc12
-5% | COc1ccccc1OCCNC(=O)/C=C/c1ccc([N+](=O)[O-])cc1
-3% | O=C(COC(=O)COc1ccccc1[N+](=O)[O-])Nc1cccc(Br)c1
-19% | Cc1ccc([N+](=O)[O-])cc1NC(=O)c1ccoc1C
-18% | O=C(CSc1nc(Nc2ccccc2)nc(N2CCOCC2)n1)Nc1ccc([N+](=O)[O-])cc1

Continued:
HPGD inh | molecule
-7% | O=C(COc1cccc(-n2cnnn2)c1)N1CCOCC1
-12% | CCOc1ccc(/C=C/C(=O)Nc2ccc(OC)cc2[N+](=O)[O-])cc1
-4% | CNC(=O)C1(C)C=CC2(CCCCC2)N1C(=O)OC (centres undefined)
-7% | COc1cc(NC(=O)CS(=O)(=O)c2ccccc2)cc(OC)c1OC
-2% | O=C(Cn1c(=O)oc2ccccc21)NCc1ccco1
? | COc1ccc(Cl)cc1-c1ccc(C(=O)O)o1
-26% | Cc1cc(C)c2[nH]c(=O)c(CN(Cc3ccc4c(c3)OCO4)Cc3nnnn3C3CCCC3)cc2c1
2% | Cn1ccc(C(=O)N2CCCc3ccccc32)n1
-13% | N#Cc1c2n(c3c(=O)n(Cc4ccc(Cl)cc4)cnc13)CCCC2
? | C=CCOC(=O)C1=C(C)NC(SCC(=O)Nc2ccc(C)c(Cl)c2)=C(C#N)C1c1ccco1 (centres undefined)
16µM* | COc1ccc(S(=O)(=O)N2CCC(C(=O)N3CCCCCC3)CC2)cc1
